High-throughput results (PubChem)
HPGD block: blocks human HPGD enzyme activity; P15428; purified HPGD, NADH fluorescence kinetic, PGE2 substrate; Potency, µM, without a hit: at the highest dose activity change, negative = inhibition, actives largely listed as inhibitors; 150,000 compounds, 4.3% hits; active = well fitted inhibition curve with a large enough effect (not every such curve was filed as active); inconclusive = small, poorly fitted or top-dose-only effect, or another doubt; inactive = no such curve, though single readings can be large or run the other way;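 further: top concentration of the series not given in the record; plate controls included wells without enzyme; inactives centre near -10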
Target sequence (P15428 whole entry, looked up): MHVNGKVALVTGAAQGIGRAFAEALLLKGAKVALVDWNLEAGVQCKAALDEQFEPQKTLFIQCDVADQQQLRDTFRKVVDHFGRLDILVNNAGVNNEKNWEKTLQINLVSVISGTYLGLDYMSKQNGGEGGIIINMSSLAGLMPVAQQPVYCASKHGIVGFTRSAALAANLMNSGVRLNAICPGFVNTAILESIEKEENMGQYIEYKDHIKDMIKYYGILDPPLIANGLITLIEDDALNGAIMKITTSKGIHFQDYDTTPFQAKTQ
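20 nM HPGD preincubated 15 min at room temperature with compound in 50 mM Tris-HCl pH 8, 0.01% Tween 20. Started with 1 mM NAD+ and 30 uM prostaglandin E2; NADH fluorescence (360/450 nm) read 5 times over 30-s intervals, last minus first.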
An asterisk follows results filed as active; u = inconclusive. On the % scale 0 is the no-effect control and ±100 the full control effect; potency means the concentration at half of the fitted maximal effect. Some of the compounds tested. The share of hits here may be higher or lower than overall.

HPGD block	Structure
-8%	Cc1cccc(/C=C/C(=O)c2ccc(N3CCOCC3)cc2)c1
-7%	O=C(N/N=C/c1cc(Br)c(Br)o1)c1cccnc1
-23%	Cc1ccc(N2CN(Cc3ccco3)CNC2=S)c(C)c1
-11%	CCC(C)(C)c1nnc(NC(=O)c2cccc([N+](=O)[O-])c2)s1
2µM*	Clc1c(-c2nnc3n2CCCCC3)sc2ccccc12
-12%	Cc1nc2cnc(Oc3cccc(Cl)c3)nc2n(CCc2ccccc2)c1=O
u	COc1ccc(-c2nc3cnc(N4CCNCC4)nc3n(-c3ccccc3)c2=O)cc1
-18%	CC1(C)C=C(c2ccc(C=O)s2)CC(C)(C)N1

Of the compounds above, these contain a furan ring, fused or not.
HPGD block	Structure
-7%	O=C(N/N=C/c1cc(Br)c(Br)o1)c1cccnc1
-23%	Cc1ccc(N2CN(Cc3ccco3)CNC2=S)c(C)c1

(listing goes on)
HPGD block	Structure
-11%	CCCCOC(=O)c1ccc(S(N)(=O)=O)o1
0%	O=C(Oc1ccc(Cl)c2cccnc12)c1ccco1
1%	Cc1ccc(SCc2[nH]nc3c2C2(C(=O)Nc4ccc(F)cc42)C(C#N)=C(N)O3)cc1 (stereo not given)
-16%	Cc1cc(C(F)(F)F)nn1CC(=O)Nc1cccnc1
-13%	COc1ccc([N+](=O)[O-])cc1NC(=O)Cc1c(Cl)cccc1Cl
-12%	NC(=O)CCCCn1ccc(NC(N)=NCC(F)(F)F)n1
20µM*	C=C[C@@H](C1=CC(=O)C(OC)=C(OC)C1=O)c1ccccc1
-28%	CCSc1nnc(NC(=O)c2ccccc2)s1
14µM*	O=C(Cc1coc2cc3c(cc12)CCC3)NC1CCCCCCC1
-16%	COCCCn1c(SCC(=O)Nc2ccc(C(C)=O)cc2)nc2ccccc2c1=O
u	Cc1ccc(/C=C/C(=O)Nc2ccncc2)o1
-20%	Clc1cccc(Cl)c1CSc1nnc(/C=C/c2ccccc2)o1
-5%	O=[N+]([O-])c1ccccc1/C=N/N1CCN(c2ccccn2)CC1
-12%	O=C(COC(=O)c1ccc(-c2ccc([N+](=O)[O-])cc2)o1)NC(=O)NC12CC3CC(CC(C3)C1)C2
-10%	Cc1cc(C)cc(NC(=O)CSc2cc(C(=O)c3nccn3C)c3ccccc3n2)c1
-2%	CCOc1ccc(NC(=O)C(Cc2ccccc2)NC(=O)C2CCCCC2)cc1 (stereo not given)

An excerpt of these results, with bars between the fields:
canonical_smiles | HPGD block
Cc1ccc(/C=C/C(=O)Nc2ccncc2)o1 | u
Clc1cccc(Cl)c1CSc1nnc(/C=C/c2ccccc2)o1 | -20%
O=[N+]([O-])c1ccccc1/C=N/N1CCN(c2ccccn2)CC1 | -5%

Other records
HPGD block	Structure
-16%	Cc1c(C(=O)OCc2ccccc2)nnn1-c1nonc1N
-9%	CCOc1cc(N2CCOCC2)c(OCC)cc1NC1=NCCCCC1
u	COC(=O)c1ccc(-c2sc3nc(N4CCOCC4)c4c(c3c2N)CCCC4)o1
-10%	CCCCC(=O)Nc1cc(NC(=O)CC)ccc1Cl
u	COc1ccccc1CNC(=O)CCCc1ccccc1
-9%	CCO/C=N/c1c(C#N)c(CC#N)nn1-c1ccccc1
-9%	O=c1[nH]c(=O)n(C2CCCCCC2)c(O)c1C=NCc1ccc(F)cc1
-6%	COc1ccc(CCNC(=O)CCC(=O)Nc2nnc(C(C)C)s2)cc1OC
-1%	CC1/C(=N/O)CC(c2ccccc2)NC1c1ccccc1 (stereo not given)
-17%	CC(=O)N1c2ccccc2C(=O)C1N1CCCCC1 (stereo not given)
0%	COc1ccc(-c2c(C#N)c(SCC(N)=O)nc3c2CCCC3)cc1
-5%	CC(=O)c1cccc(NC(=O)C(OC(=O)c2cccc(S(=O)(=O)N(C)c3ccccc3)c2)c2ccccc2)c1 (stereo not given)
-9%	O=C(CSc1nc(-c2ccccc2)nc2ccccc12)Nc1nccs1
-11%	CC1(C)Cc2ccccc2/C(=C/C(=O)N2CCCCCC2)N1
-16%	Cn1cnc(S(=O)(=O)NCc2cccs2)c1
-10%	Cc1nc(CSc2nnc(C)s2)cs1
1%	CCC(=O)Nc1nnc(C(C)(C)C)s1
-7%	CC(C)C1C(C#N)=C(N)Oc2n[nH]c(-c3cccs3)c21 (stereo not given)
2%	CCn1nc(C)c(NC(=O)c2ccc(Br)o2)c1C
-10%	O=C(O)C1C2C=CC3(CN(Cc4ccco4)C(=O)C13)O2 (stereo not given)
-19%	COc1cccc(N2C(=O)C3C(C2=O)C2C=CC3C23CC3)c1 (stereo not given)
-4%	COC(=O)CN1C(=O)C(O)(CC(=O)c2ccc(Br)cc2)c2ccccc21 (stereo not given)
-18%	CC(C)Nc1nc(NC(C)C)nc(SCCOC(=O)Nc2ccc(Cl)cc2Cl)n1
23%	COc1ccccc1Oc1c(C)oc2cc(OC(=O)c3ccco3)ccc2c1=O
-7%	CCCCC(c1nnnn1CC1CCCO1)N1CCN(c2nc3ccccc3s2)CC1 (stereo not given)
-12%	O=C(O)C1CCCCC1C(=O)N1CC=C(c2ccccc2)CC1 (stereo not given)
-7%	CN1CCN(CCCn2cnc3c(=O)oc4ccccc4c32)CC1
-19%	CCOC(=O)C1=C(C)NC(C)=C(C(=O)OCC)C1C(=O)OCC(=O)N1CCCCC1CC (stereo not given)
-4%	CNCCCc1[nH]nc(N)c1C#N
u	COc1cc2cc3c4c(cc(OC)c(OC)c4c2cc1OC)CCN3C
-1%	CCCOc1ccc(CC(=O)NCc2ccco2)cc1OC
-12%	COc1ccc(NC(=O)c2c(C(F)(F)F)nn(C)c2SCc2ccccc2)cc1
-7%	Cc1cccc(OCC(=O)NC(=S)Nc2ccccc2N2CCOCC2)c1
-5%	Cc1nnc(SC(C)C(=O)N2CCc3ccccc32)s1 (stereo not given)
-13%	COc1ccc(CN(C)CC(=O)c2c(N)n(Cc3ccccc3)c(=O)n(C)c2=O)c(OC)c1
-9%	CC1=C(C)C(=O)N(c2ccc(C(=O)O)cc2)C1=O
-8%	CCc1cccc(NC(=O)CSCc2cc(=O)[nH][nH]2)c1
u	Cc1cc2oc(=O)cc(C)c2cc1NC(=O)CCC(=O)O
-7%	Cc1ccc(S(=O)(=O)N2CCCC(C(=O)NCC3COCCO3)C2)cc1 (stereo not given)
-17%	Cc1cccc2sc(NC(=O)CN(C)S(=O)(=O)c3ccc(Br)s3)nc12
-10%	C=CCn1c(SCc2nc3ccccc3[nH]2)nnc1-c1ccccn1
-8%	COc1ccc(N2CCN(S(=O)(=O)c3cccc4cccnc34)CC2)cc1
-26%	CCOc1ccc(-c2nnc(NC(=O)CCCOc3cccc(C)c3)o2)cc1
20µM*	Cc1ccc(N=Nc2c(=O)[nH]n3c(=O)cc(C)[nH]c23)cc1
-18%	O=C1C/C(=C/NCc2ccccc2)C(=O)N1
-8%	C=CC[C@H](N)C(=O)O
-19%	CN(C)CCCNC(=O)COc1ccc(Br)cc1Cl
u	Cc1cccc(NC(=O)c2cc(-c3ccco3)nc3ccccc23)n1
-12%	O=C(O)C1CCCCC1C(=O)Nc1ccccc1Nc1ccccc1 (stereo not given)
-5%	COc1ccc(/C=C(/C(=O)NCc2ccccc2)c2ccccc2)cc1
-30%	CC(=O)c1c(C)[nH]c(C(=O)CSc2nc3ccc(C)cc3[nH]2)c1C
-8%	CC1CN(S(=O)(=O)c2ccc(C(=O)Nc3ccc(S(=O)(=O)Nc4nccs4)cc3)cc2)CC(C)O1 (stereo not given)
-9%	CC[N+](CC)(CCO)CCCN1C(=O)C2CC=C(Cl)CC2C1=O (stereo not given)
u	CCOP(=O)(OCC)c1nc(/C=C/c2ccccc2)oc1NCc1ccccc1
-7%	COC(=O)CCC(NC(=O)OCc1ccccc1)C(=O)NC(CC(C)C)C(=O)OC (stereo not given)
-17%	O=C1CCCN1c1ccc(S(=O)(=O)N2CCN(c3ccccn3)CC2)cc1

The listing continues.
HPGD block	Structure
0%	COc1ccc(N(CC(=O)Nc2cccc(OC)c2)S(=O)(=O)c2c(C)nn(C)c2C)cc1
-4%	C=CCN(C(=O)CCC(=O)Nc1cc(C)on1)C(C(=O)NC(C)(C)C)c1cccc(OC)c1OC (stereo not given)
-17%	OC(CN1CCN(c2ccccc2)CC1)Cn1c2ccccc2c2ccccc21 (stereo not given)
-6%	CCOc1ccc(C(=O)NC(=S)Nc2ccc(NC(=O)c3ccco3)c(C)c2)cc1[N+](=O)[O-]
16µM*	O=C(Cc1cccs1)NCc1ccc2c(c1)OCO2
-21%	Cc1cc(C(=O)CNCc2ccco2)c(C)n1-c1ccc(F)cc1
-6%	COCc1nc2ccccc2n1Cc1ccc(Br)cc1
-15%	COc1ccc(S(=O)(=O)N(C)CC(=O)N2CCN(Cc3ccccc3)CC2)cc1C
-13%	CCCCCCC/C(C)=N/NC(=O)CC(=O)NCCc1ccccc1
-21%	CC(C)NC(=O)c1ccc(-c2ccccc2C(F)(F)F)o1
0%	C/C(=N\NC(=O)NC1CCCCC1)C1CCCCC1
-17%	CNC(=O)c1nn(-c2ccc(C)cc2)ccc1=O
-10%	CCOC(=O)C1=C(C)NC(=O)NC1c1ccc(OCC(=O)OC)c(OC)c1 (stereo not given)
u	CCN=C1S/C(=C\c2cn(C(C)=O)nc2-c2ccccc2)C(=O)N1CC
-7%	CCOC(=O)c1nn(-c2ccccc2)c2nnc(Cc3ccc(Cl)cc3)c(=O)n12
-9%	COCCN1Cc2cccc(C(=O)Nc3cccc(OC)c3)c2C1=O
-8%	COc1cc(/C=N/O)ccc1OCc1ccc(C(=O)O)cc1
-5%	O=C(CSc1ccc(Cl)cc1)Nc1cc(-c2nc3ncccc3o2)ccc1Cl
u	CCN(CCCNC(=O)CCc1nc(-c2ccc(OC)cc2)no1)c1cccc(C)c1
-18%	Cc1ccccc1C(=O)c1c[nH]c(C(=O)NCc2cccs2)c1
-20%	Cc1nn(CCC(=O)NNC(=S)Nc2ccc(Cl)cc2)c(C)c1[N+](=O)[O-]
-8%	COc1ccccc1/C=C/C1(C(=O)NC2CCCC2)CC(=O)N1c1ccc(C)cc1 (stereo not given)
-18%	CC1CCN(C(=O)CSCC(=O)Nc2nc(-c3cccs3)cs2)CC1
-6%	Cc1ccc(S(=O)(=O)Nc2cc(C(=O)NCCN(C)C)ccc2N2CCCCC2)cc1
-13%	Cc1ccc(-c2noc(CCC(=O)Nc3ccc(C)cn3)n2)cc1
-7%	Cc1ccc(C(=O)NN(C)c2nc3ccccc3nc2C(F)(F)F)cc1
-14%	CN1/C(=C\C(=S)NC(=O)c2ccccc2Cl)C(C)(C)c2ccccc21
-11%	Cc1ccccc1CN1CCN(S(=O)(=O)c2ccc(F)cc2)CC1
-3%	COc1ccc(N2CCN(C(=O)c3ccc(OCc4c(C)noc4C)c(OC)c3)CC2)cc1
1%	Nc1nonc1-c1nc2ccccc2n1CC(=O)N1CCCCC1
-3%	CC(=O)Nc1cccc(NC(=O)C2CCCN2C(=O)Nc2ccc(Cl)cc2)c1 (stereo not given)
-13%	COc1cccc(-c2csc(N3CCN(CC(=O)NNC(=O)c4ccc(Br)cc4)CC3)n2)c1
18µM*	COCC(=O)Nc1ccc(C(C)C)cc1
-4%	O=C(c1ccccc1)c1ccc2nc(-c3ccc(NC(=O)c4ccccc4Br)cc3)[nH]c2c1
-10%	COc1cc(CN(C(=S)NCC(=O)NC2CCCC2)C2CCCC2)cc(OC)c1OC
-10%	O=C(CCSc1nc2ccccc2o1)N1CCOCC1
-4%	COCCOC(=O)C1=C(C)NC2=C(C(=O)CC(C)(C)C2)C1c1ccc(N(C)C)cc1 (stereo not given)
0%	CC(C)CC(=O)N1CCN(S(=O)(=O)c2ccc3ccccc3c2)CC1
-9%	CC1Cc2ccccc2N1C(=O)c1cnc2n(c1=O)CCS2 (stereo not given)
-18%	O=C(Nc1cccc(Cl)c1)N(CCN1CCOCC1)Cc1cccc(Cl)c1

Shown as a hit in HPGD block, of those listed so far:
HPGD block	Structure
2µM*	Clc1c(-c2nnc3n2CCCCC3)sc2ccccc12
20µM*	C=C[C@@H](C1=CC(=O)C(OC)=C(OC)C1=O)c1ccccc1
14µM*	O=C(Cc1coc2cc3c(cc12)CCC3)NC1CCCCCCC1
20µM*	Cc1ccc(N=Nc2c(=O)[nH]n3c(=O)cc(C)[nH]c23)cc1
16µM*	O=C(Cc1cccs1)NCc1ccc2c(c1)OCO2
18µM*	COCC(=O)Nc1ccc(C(C)C)cc1

The listing continues.
HPGD block	Structure
-2%	CCCCCC1CCC(c2ccc(C(N)=O)cc2)CC1 (stereo not given)
-11%	N#Cc1c(N)sc(=S)c2c1CCCC2
-15%	CC(C)(C)OC(=O)NCCc1nnc(SCC(=O)c2ccc(Cl)cc2)o1
-11%	Cc1ccccc1NC(=O)N1CCCC(c2nc(-c3ccc(C(C)C)cc3)no2)C1 (stereo not given)
-27%	CN1CCN(c2ccc([N+](=O)[O-])cc2S(=O)(=O)N2CCOCC2)CC1
-13%	COc1ccc(C(=O)NCc2cccnc2)cc1OC
-18%	Cc1cc(SCC(=O)c2ccccc2)n2nc(C)nc2n1
7%	CCOC(=O)N1CCC(NC(=O)C2CCN(S(=O)(=O)c3cnc[nH]3)CC2)CC1
-8%	C[N+]1(CC(O)COc2ccccc2)CCN(C(=O)c2ccc([N+](=O)[O-])cc2)CC1 (stereo not given)
7.9µM*	COc1cc(C(=S)N2CCCC2)cc(Cl)c1OCC(=O)Nc1ccc(C)cc1C
